Biofilm kill mix: mixtures killing C. albicans biofilm; C. albicans biofilm persisters + clotrimazole, fluorescence viability; primary screen in compound mixtures of four per well; inhibition, % at 7.6 µM; 120,000 compounds, 0.02% hits; AID 1242;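 active = inhibition above 30.3% in the primary screen of four-compound pools, then above 30% when the compound was retested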;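 note: compounds exposed to preformed 24 h biofilms for 48 h; the number belongs to the whole pool; some results filed as inactive read as strong as hits; inactives centre near 12; 0% = biofilm with clotrimazole alone and 100% = kill control; retested singly at about 60 µM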
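Assay system: C. albicans biofilms / Medium: RPMI/MOPS medium, pH 7.0 / Schedule: biofilm formation 24 h, compound exposure 48 h, 37 °C / Measured by: Alamar Blue fluorescence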
Starred values were filed as active, the others as inactive.

SMILES | Biofilm kill mix
O=C(/C=C/c1ccc(Cl)cc1)Nc1ccc(Br)cn1 | 14
COC(=O)CC(NC(=O)Nc1ccc(C)cc1)c1cccc([N+](=O)[O-])c1 (stereo not drawn) | 14
COc1ccc(CNC(=O)CN2C(=O)NC3(CCCCCC3)C2=O)cc1OC | 13
Cc1c(NC(=O)CSc2ccc(Cl)cc2)c(=O)n(-c2ccccc2)n1C | -8
O=C(NC1=NN(c2ccccc2)CC1)Nc1ccccc1F | 14
O=C(NC1(C(F)(F)F)NC(=O)N(CCc2ccccc2)C1=O)C1CC1 (stereo not drawn) | 9
CC(C(=O)NCC1CCCCC1)N(C)Cc1cccc(Cl)c1 (stereo not drawn) | 14
Cc1cccc(Nc2cc(=O)[nH]c(=O)[nH]2)c1C | 18
CC(=O)Cc1nnn(-c2cc(C)on2)n1 | 22
Cc1ccc(C(=O)N/C(=C\c2ccccc2F)c2nc(=S)[nH][nH]2)cc1 | 9
S=C(NCc1ccc2c(c1)OCO2)NC1CC1 | 9
Cc1ccc(S(=O)(=O)Nc2ccccc2C(=O)Nc2ccc(S(=O)(=O)Nc3nccc(C)n3)cc2)cc1 | 21
CCCC/C=C/C(NC(=O)CCc1ccccc1)c1ccccc1 (stereo not drawn) | 15
Cc1c(Cl)cccc1N1C(=O)CC(NNC(=O)c2cccnc2)C1=O (stereo not drawn) | 8
COC(=O)c1ccc(CSc2nc3sc(C(=O)O)c(C)c3c(=O)[nH]2)cc1 | 22
Cc1ccc(C(NC(=O)N2CCOCC2)C(Cl)Cl)cc1F (stereo not drawn) | 5
COc1ccc(Cl)cc1NC(=O)NCCN1CCCCC1 | -2
CCCCOC(=O)n1c(=O)oc2ccc(S(=O)(=O)N3CCCCC3)cc21 | 14
ClC1(Cl)CC1CSc1ncn[nH]1 (stereo not drawn) | 7
O=C(NC(=S)Nc1cccc(NC(=O)c2ccccc2)c1)c1cccc([N+](=O)[O-])c1 | 20
CCCc1cc(=O)[nH]c(SCC(=O)Nc2nc3ccc(OCC)cc3s2)n1 | 13
CCCn1c(N)c(N(CCOC)C(=O)/C=C/c2cccc(Cl)c2)c(=O)[nH]c1=O | 12
Cn1c(-c2ccc3c(c2)OCO3)cc(=O)c2ccccc21 | 29
Cc1ccc(NC(=O)CCC(=O)N/N=C/c2coc3ccccc3c2=O)cc1 | 16
CCn1ncc(C2=NOC(C(=O)Nc3cccc(O)c3)C2)c1C (stereo not drawn) | 14
COc1ccccc1N(CC(=O)Nc1ccccc1C)S(C)(=O)=O | 4
CCCC(=O)Nc1ccc(Nc2ccccc2)cc1 | 18
CCN(CC)S(=O)(=O)c1ccc(OC)c(NC(=O)c2cccs2)c1 | 4
N#C/C(=C\c1ccncc1)c1nc2ccccc2c(=O)[nH]1 | -4
COC(=O)C1(Cc2ccc(O)cc2)OC(=O)C(O)=C1c1ccc(O)cc1 (stereo not drawn) | 13
Cc1ccc(NC(=O)Cc2noc3ccccc23)c(C)c1 | -18
O=C(CCc1ccccc1)NNC(=O)c1ccccc1Br | 13
CC(/C=N/n1c(-c2ccccn2)n[nH]c1=S)=C\c1ccccc1 | 16
Cc1cccc(OCC(O)CN2CC3(C)CC2CC(C)(C)C3)c1 (stereo not drawn) | 10
COc1ccc(/C(C)=N\NC(=O)CSc2nnc(C)s2)cc1 | 9
O=C(NCC1CCCO1)C(c1ccc(F)cc1)N(CCCN1CCOCC1)C(=O)c1ccc(-c2ccccc2)[nH]1 (stereo not drawn) | 31
Cc1cc(C(=O)C(=O)N(C)C)c(C)n1-c1ccc(Cl)cc1 | 10
CCOC(=O)C(C(C)=O)c1nc(C)nc2c1nnn2Cc1ccccc1Cl (stereo not drawn) | 19
COc1ccc(/C=C/C(=O)c2ccc3c(c2)OCO3)c(OC)c1 | 14
O=C(Nc1ccccc1)N1N=C(c2cccs2)CC1c1cccs1 (stereo not drawn) | 3
COc1ccc(-c2ccc(SCC(=O)NCc3ccc4c(c3)OCO4)nn2)cc1OC | 10
C[C@@H](C(=O)Nc1ccc2ccccc2c1)[C@@H]1C[C@@]1(C)[C@@H](NC(=O)c1cccnc1)c1ccccc1 | 13
Cn1nc(C(F)(F)F)c(-c2ccccc2)c1NC(=O)c1nccnc1C(=O)O | 5
COc1ccc(N2CCN(C(=O)COc3ccc4c(C)cc(=O)oc4c3)CC2)cc1 | 6
O=C1CC(c2ccccc2)CC(O)=C1C=Nc1ccccc1Cl (stereo not drawn) | 10
COc1ccc(NC(=O)c2ccccn2)cc1OC | 10
O=C(NNC(=O)c1ccc(-c2ccccc2)cc1)c1ccccc1 | 3
CCOC(=S)SCc1cn2ccc(C)cc2n1 | 10
CCOCCCNC(=O)C(NC(=O)Cc1cccs1)c1ccc(Cl)cc1 (stereo not drawn) | 2
COC(=O)c1ccc2c(=O)n(Cc3ccco3)c(SCC(=O)Nc3cc(C)on3)nc2c1 | 15
CCCCN(CCCNC(=O)Cn1ncc2ccsc2c1=O)Cc1ccccc1 | 10
O=C(CNCC1CCCO1)N1CCCCCC1 (stereo not drawn) | 17
CC(C)CC(=O)NC(=S)Nc1ccc(N2CCOCC2)c(Cl)c1 | 17
Cc1ccc(-c2csc(NC(=O)CSC3=NCCS3)n2)cc1 | 14
COCCCNc1nc2nonc2nc1N1CCN(Cc2cccc(C)c2)CC1 | 12
CN(Cc1c(F)cccc1Cl)C(=O)c1cc2ccccc2o1 | -10
CCOC(=O)c1ccc(NC(=O)N2CCOCC2)cc1 | 15
Cc1ccc(NC(=O)CN2CCCCCC2)cc1[N+](=O)[O-] | -3
O=c1c(Cl)c(NCCO)cnn1-c1cccc(Cl)c1 | -11
COc1ccc(N(Cc2ccccc2)S(=O)(=O)c2cccc(C(=O)O)c2)cc1 | 14

The results go on:
SMILES | Biofilm kill mix
CN1CCN(/N=C/c2ccc(N(c3ccccc3)c3ccccc3)cc2)CC1 | 10
Cc1ccc(N2CCN(C3=NC(=O)/C(=C\c4cn[nH]c4-c4ccccc4)S3)CC2)cc1 | 14
Cc1ccc(C)c(C(=O)COc2ccccc2[N+](=O)[O-])c1 | 15
COC(=O)c1ccc2nc(Nc3nc4ccc(F)cc4s3)sc2c1 | -4
CCOc1ccc(NC(=O)Nc2ccc3c(c2)nc(C)n3C)cc1 | 23
COc1cc(NC(=O)c2ccc(CNc3c(N4CCCC4)c(=O)c3=O)cc2)cc(OC)c1OC | -40
COc1ccc(-c2cc(-c3nnc(COC(=O)c4ccncc4)o3)c3ccccc3n2)cc1OC | 0
CCCc1nc2c(sc3nc4c(cc32)COC(C)(C)C4)c(=O)n1CCN(C)C | 13
O=C(N1CCCCC1)N1CCN(C(=O)N2CCCCC2)CC1 | 43
CCO[C@H]1OC(C(=O)Nc2ccccc2)=C[C@@H](c2cn(C(C)=O)c3ccccc23)[C@@H]1CCCO | 12
CC1CCc2c(sc(NC(=O)Cn3cnc([N+](=O)[O-])n3)c2C(N)=O)C1 (stereo not drawn) | 12
COc1ccc2c(c1)c(CC(=O)Nc1nnc(C3CC3)s1)c(C)n2C(=O)c1ccc(Cl)cc1 | 9
COc1ccc(C(=O)Nn2c(CCC(=O)O)ccc2-c2ccc(C)cc2)cc1OC | -6
Cc1cccc(CN2CCC(CNC(=O)CSc3cc(=O)n(C)c4cc(Cl)ccc34)CC2)c1 | 13
O=C(CN1C(=O)NC(c2ccccc2)(c2ccccc2)C1=O)Nc1cccnc1Cl | 6
CC[C@H](C)[C@@H](NC(=O)O[C@@H]1C(=O)c2cc(Br)ccc2O[C@H]1c1ccc2c(c1)OCO2)C(=O)OC | 5
CCOC(=O)c1cc(C(=O)NC(C)c2ccccc2)c(C)[nH]c1=O (stereo not drawn) | 29
O=C(CN1CCN(c2ccc(C(F)(F)F)cn2)CC1)NCc1ccc2c(c1)OCO2 | 17
Cc1ccc(S(=O)(=O)N/N=C/c2ccc3nccnc3c2)cc1 | 16
O=C(CCSCc1cccc(Cl)c1)NCCc1ccccc1 | 13
CN(C)CCCN(C(=O)/C=C/c1cccs1)c1nc2ccc(F)cc2s1 | 14
CC(C)OP(=O)(Nc1cccc2ccccc12)OC(C)C | 11
Cc1ccc2c(c1)N(CC(=O)OCC(=O)NCc1ccccc1)C(=O)CO2 | -29
Cc1nn2c(NCCN3CCOCC3)c3c(nc2c1-c1ccccc1)CCCC3 | 16
CC(=O)c1ccc(Nc2cc(C)nc3ccc(C)cc23)cc1 | 8
COc1cc(/C=C/c2cc(C(=O)O)c3ccccc3n2)ccc1OC(F)F | 10
CC1CCN(CC(=O)Nc2cccc(C(=O)Nc3cccc(C(F)(F)F)c3)c2)CC1 | 16
CCS(=O)(=O)c1ccc2oc(SCC(=O)Nc3ccc(OC)cc3)nc2c1 | 7
COc1ccc(CCNC(=S)N2CCC(Cc3ccccc3)CC2)cc1OC | 13
O=C(CC1CCCCC1)Nc1ccccc1-c1ccccc1 | 23
CCN(CC)CCCOC(=O)C(c1ccccc1)c1ccccc1 | 23
CCCOc1ccc(N2C(=O)CC(N(Cc3ccco3)C(C)=O)C2=O)cc1 (stereo not drawn) | 22
CCOc1cc(N2CCOCC2)c(OCC)cc1NC(C)C(=O)N1CCN(CC)CC1 (stereo not drawn) | 10
COc1ccc(NC(=O)Nc2sc(=S)n(C)c2C)cc1 | 9
Cc1ccc([N+](=O)[O-])cc1S(=O)(=O)N1CCNCC1 | 15
Cn1c(=O)c2cc3ccccc3nc2n(C)c1=O | 11
COc1ccc(NS(=O)(=O)c2ccc3oc(=S)[nH]c3c2)cc1 | 17
O=C(c1ccccc1)N1CCCCC(Cl)C1=O (stereo not drawn) | 7
CCCNC(=O)C12CCC(C)(c3nc4cc(C)c(C)cc4nc31)C2(C)C (stereo not drawn) | 9
CCCn1nnc(NC(=O)/C=C/c2ccc(C(C)C)cc2)n1 | 0
N#C/C(=C(/O)c1cccs1)c1nc2ccccc2[nH]1 | 19
COC(=O)CCCC1=CC2=CC(=O)C(C)(OC(=O)c3cccs3)C(=O)C2=CN1c1cccc(C#N)c1 (stereo not drawn) | 15
Cc1ccc(/C=C/C(=O)NCCCN2CCN(CCCNC(=O)/C=C/c3ccc(C)o3)CC2)o1 | 7
CN(C)C(=S)SCC(=O)NC(=O)NC(C)(C)C | 9
CC(=O)c1cc(-c2ccccc2)n(CC(=O)NC2CCCCC2)c1C | 16
O=C(NC1CCN(Cc2ccccc2)C1)c1cc(COc2ccc(F)cc2F)on1 (stereo not drawn) | -1
CCCNC(=O)COC(=O)c1ccc(S(=O)(=O)N2CCCC2)cc1 | 14
COC(=O)CSc1nc(NCc2ccccc2)nc(N(C)C)n1 | 19
O=C(O)c1cc(C(=O)C2CC2)c[nH]1 | 27
COC(=O)C1CCN(Cc2cn(Cc3ccccc3)nc2-c2cc3ccccc3o2)CC1 | 29
CC(C)CCSc1nc2[nH]ncc2c(=O)[nH]1 | 16
COC(=O)/C(=C/c1ccc(OC)cc1)NC(=O)c1ccco1 | 3
OCCCc1ccc(O)c(O)c1 | 3
COC(=O)c1c(C)oc(C)c1S(=O)(=O)NC(C)(C)C | 17
CC(C)c1ccc(NC(=O)Cc2cn(C)c3ccccc23)cc1 | 10
O=c1c2c(-c3ccc([N+](=O)[O-])cc3)csc2nc2n1CCC2 | 11
CC(=O)Nc1ccccc1Oc1ccccc1 | 10
Cc1cccc(NC(=O)COC(=O)Cc2c[nH]c3ccccc23)c1C | -5
COc1ccc(-c2noc(CN3CCC(Cc4ccccc4)CC3)n2)cc1 | 6
CN(Cc1ccccc1Cl)C(=O)c1cnccc1C(F)(F)F | 15

(list continues)
SMILES | Biofilm kill mix
O=C(CN1CCOCC1)N1N=C(c2cccs2)CC1c1cccs1 (stereo not drawn) | 1
CCO[C@@H]1OC(C(=O)N2CCN(Cc3ccc4c(c3)OCO4)CC2)=C[C@H](c2coc3ccccc3c2=O)[C@H]1CCCO | 17
COc1cc(C(=S)N2CCOCC2)cc(OC)c1OC(=O)Cc1ccc(F)cc1 | 16
Cc1ccc(COc2ccsc2C(=O)NN)cc1 | 2
COc1cc(OC)c(OC)cc1/C=N/NC(=O)C[n+]1ccccc1 | 11
Cc1ccc(-c2nn(-c3ccccc3)cc2C=O)o1 | -5
CC(C)C(=O)Nc1ccc(S(=O)(=O)Nc2ccccn2)cc1 | 17
O=C1Nc2ccc(S(=O)(=O)NCC3CCCO3)c3cccc1c23 (stereo not drawn) | 15
CSc1ccccc1NC(=O)COC(=O)c1ccccc1O | 11
COc1ccc(N(CC(=O)N/N=C(\C)c2cccs2)S(=O)(=O)c2ccccc2)cc1Cl | 14
Oc1c(N=Nc2ccccc2)sc2ccccc12 | 27

Among those listed so far, 15 have a thiophene ring, fused or not.
SMILES | Biofilm kill mix
COC(=O)c1ccc(CSc2nc3sc(C(=O)O)c(C)c3c(=O)[nH]2)cc1 | 22
CCN(CC)S(=O)(=O)c1ccc(OC)c(NC(=O)c2cccs2)c1 | 4
O=C(Nc1ccccc1)N1N=C(c2cccs2)CC1c1cccs1 (stereo not drawn) | 3
CCOCCCNC(=O)C(NC(=O)Cc1cccs1)c1ccc(Cl)cc1 (stereo not drawn) | 2
CCCCN(CCCNC(=O)Cn1ncc2ccsc2c1=O)Cc1ccccc1 | 10
CCCc1nc2c(sc3nc4c(cc32)COC(C)(C)C4)c(=O)n1CCN(C)C | 13
CC1CCc2c(sc(NC(=O)Cn3cnc([N+](=O)[O-])n3)c2C(N)=O)C1 (stereo not drawn) | 12
CN(C)CCCN(C(=O)/C=C/c1cccs1)c1nc2ccc(F)cc2s1 | 14
N#C/C(=C(/O)c1cccs1)c1nc2ccccc2[nH]1 | 19
COC(=O)CCCC1=CC2=CC(=O)C(C)(OC(=O)c3cccs3)C(=O)C2=CN1c1cccc(C#N)c1 (stereo not drawn) | 15
O=c1c2c(-c3ccc([N+](=O)[O-])cc3)csc2nc2n1CCC2 | 11
O=C(CN1CCOCC1)N1N=C(c2cccs2)CC1c1cccs1 (stereo not drawn) | 1
Cc1ccc(COc2ccsc2C(=O)NN)cc1 | 2
COc1ccc(N(CC(=O)N/N=C(\C)c2cccs2)S(=O)(=O)c2ccccc2)cc1Cl | 14
Oc1c(N=Nc2ccccc2)sc2ccccc12 | 27

Some of the compounds tested, so the mix of outcomes need not match the whole.
